Bioassay records: PubChem, several laboratories
LANA-H2B inh = blockers of LANA interaction with H2A/H2B – biochemical, FP readout, HTS, primary screen; cell-free LANA-H2A/H2B peptide, fluorescence polarization; inhibition, % (concentration not given with the values); AID 2629, 2010; hit rate 0.6% among 320,000; Protein LANA1 (Human herpesvirus 8 type P (isolate GK18)), Q9QR71; in the data active = inhibition mostly above about 10%, no sharp cut-off; inactive = mostly below about 6.7%;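 also: stock transfer was 7.5 nL into about 10 µL; 0% = median of vehicle wells and 100% = median of positive control wells; one replicate is shown; the record names a cut of 25% in any replicate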
Target sequence (Q9QR71 whole entry, looked up): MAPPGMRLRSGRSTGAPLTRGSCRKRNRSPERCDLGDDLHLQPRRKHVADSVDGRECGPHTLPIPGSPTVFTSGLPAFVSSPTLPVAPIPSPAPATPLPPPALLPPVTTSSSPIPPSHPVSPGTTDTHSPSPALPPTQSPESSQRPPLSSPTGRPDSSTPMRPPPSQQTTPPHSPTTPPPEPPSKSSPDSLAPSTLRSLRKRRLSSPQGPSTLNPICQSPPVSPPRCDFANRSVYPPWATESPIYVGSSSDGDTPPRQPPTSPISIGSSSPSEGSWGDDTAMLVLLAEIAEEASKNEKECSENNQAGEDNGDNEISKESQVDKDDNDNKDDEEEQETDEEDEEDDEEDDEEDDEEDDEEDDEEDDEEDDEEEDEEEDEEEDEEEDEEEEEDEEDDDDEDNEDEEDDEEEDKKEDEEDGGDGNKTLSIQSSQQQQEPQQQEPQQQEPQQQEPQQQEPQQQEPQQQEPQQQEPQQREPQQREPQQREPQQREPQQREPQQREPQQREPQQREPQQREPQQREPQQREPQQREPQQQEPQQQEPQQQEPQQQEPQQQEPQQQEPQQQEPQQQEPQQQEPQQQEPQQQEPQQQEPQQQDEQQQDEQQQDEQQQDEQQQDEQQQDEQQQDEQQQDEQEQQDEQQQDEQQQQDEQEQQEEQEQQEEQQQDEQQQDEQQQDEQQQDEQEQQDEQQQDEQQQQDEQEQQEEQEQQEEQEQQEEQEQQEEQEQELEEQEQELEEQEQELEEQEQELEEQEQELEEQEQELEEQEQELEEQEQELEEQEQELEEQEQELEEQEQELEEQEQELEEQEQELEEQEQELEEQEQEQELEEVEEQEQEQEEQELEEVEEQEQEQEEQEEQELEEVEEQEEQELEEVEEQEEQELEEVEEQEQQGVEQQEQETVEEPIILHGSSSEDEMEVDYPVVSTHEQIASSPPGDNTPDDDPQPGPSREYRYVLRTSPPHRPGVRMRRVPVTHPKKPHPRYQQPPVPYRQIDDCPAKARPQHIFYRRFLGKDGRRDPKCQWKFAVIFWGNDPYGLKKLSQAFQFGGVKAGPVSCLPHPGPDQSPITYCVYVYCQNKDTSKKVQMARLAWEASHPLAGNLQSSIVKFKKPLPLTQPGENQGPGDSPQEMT
T cruzi inh = inhibitors of intracellular T. cruzi growth, primary screen, luminescence, NIH3T3 host cells. T. cruzi beta-gal in NIH3T3, 90 h. inhibition, % (concentration not given with the values). hit rate 1.4% among 300,000. AID 1885, 2009;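 active = mean inhibition across valid replicates above about 55%, limit read from the data; inconclusive = mean below that limit but half or more replicates reach it; inactive = mean below it, under half of replicates reach it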;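 also: signal also drops with host cell toxicity which is not excluded here; 0% = plate median of DMSO wells and 100% = zero luminescence signal; higher percent means less beta-gal luminescence so fewer parasites; stock transfer was 50 nL into about 50 µL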
RanGTP-Impb inh = inhibitors of RanGTP-importin-beta interaction, primary screen, biochemical, FRET, CFP-Ran, YFP-importin-beta, homogeneous; inhibition, % (test concentration not listed); hit rate 1.1% among 300,000; Ran GTPase (GTP-bound) - importin-beta complex; cell-free CFP-Ran/YFP-importin-beta FRET ratio;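 active = most replicates above 15%; inconclusive = exactly half above 15%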;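 also: 0% = DMSO wells and 100% = Ran loaded with GDP instead of GTP; wells of about 40 µL received 100 nL stock; the first replicate is given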
Beta apoptosis = inhibitors of cytokine-induced beta cell apoptosis, primary screen, luminescence; protection from apoptosis, % (test concentration not listed); INS-1E cytokine-induced death, ATP luminescence, 48 h; percent of positive-control rescue, neutral wells zero; hit rate 0.8% among 300,000; AID 435005, 2010;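 active = all replicates at 75% or more, or half of them and the mean; inconclusive = half reach 75% but not the mean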;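 also: 0% = cytokine-treated negative control wells and 100% = positive control rescue; higher means more ATP so stronger rescue from cytokine killing; wells of about 40 µL received 100 nL stock; the first replicate is given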
Calb FLC = C. albicans growth inhibition with fluconazole, primary screen, CaCi-2 strain, Alamar Blue fluorescence. C. albicans CaCi-2 (fluconazole-resistant clinical isolate) + fluconazole, 48 h. growth inhibition, % (concentration not given with the values). hit rate 0.57% among 300,000. AID 1979, 2009;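 active = most replicates above 75%; inconclusive = exactly half above 75%; inactive = most below 75%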;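 also: all wells also contain fluconazole at 8 µg/ml as a sub-toxic cotreatment; 0% = median of DMSO wells and 100% = median of geldanamycin control wells; wells of about 8 µL received 7.5 nL stock; the first replicate is given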
A1 inh = caspase 3/7 activation in MEF A1-2A-BIM cells, primary screen, A1 inhibitor project, cell-based, luminescence, HTS; Caspase-Glo 3/7 luminescence, 3 h; percent of clofoctol response, vehicle zero; caspase activation, % (test concentration not listed); hit rate 0.066% among 330,000; AID 2462, 2010;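 active = over half of replicate activation scores above 10%, or exactly half above 10 with the replicate mean above 10; inconclusive = replicate mean below 10 yet half the replicates above 10; inactive = over half of replicates below 10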;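 also: wells of about 30 µL received 50 nL stock; many hits fall short of the cut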
UCH37 inh = inhibitors of human UCH37 deubiquitinase, primary screen, biochemical, Ub-AMC cleavage, fluorescence. purified proteasome/UCH37. inhibition, % (test concentration not listed). hit rate 0.33% among 330,000. AID 588478, 2011;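 active = mean of two replicates above 20%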;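 also: 0% = compound-free wells with enzyme and 100% = wells lacking proteasome; stock transfer was 100 nL into about 20 µL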
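Assay system: Proteasome-bound UCH37. Buffer or medium: pH 7.4 Tris-HCl (50 mM) with ovalbumin, ATP-MgCl2, DTT. Incubation: 30 min preincubation with enzyme, 25 min cleavage at room temperature. Measured by: fluorescence, ex 355 nm, em 460 nm. Read-out basis: percent inhibition. Control set: wells without proteasome as full block, compound-free enzyme plus substrate as uninhibited.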
B2AR ag = beta2AR agonists driving receptor internalization, primary screen, cell-based, FAP fluorogen, flow cytometry | response, % (no concentration beside the values) | hit rate 0.43% among 340,000 | Beta-2 adrenergic receptor (Homo sapiens), P07550 | Am2.2-beta2AR cells; reference of the scale not given here | AID 504454, 2011;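 active = response above a set limit, near 3 SD of response in nonfluorescent compounds, cut at about 42% in these data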;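 also: stock transfer was 100 nL into about 11 µL; a reference agonist was the positive control; negative values mostly stem from fluorescent compounds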
Active calls of the source: *.

Results for Cc1noc(C)c1COc1ccc(C(=O)NCCc2ccc(S(N)(=O)=O)cc2)cc1 ?
T cruzi inh: -4; RanGTP-Impb inh: 0.2; Beta apoptosis: 2; Calb FLC: 16; A1 inh: 2.1; UCH37 inh: 1.5; B2AR ag: 4

Results for COc1ccc(CNC(=O)c2ccc(N3CCC4(CC3)CC(c3ccc(Cl)cc3)=NO4)c(NC(=O)c3ccccc3)c2)cc1 ?
LANA-H2B inh: -3.0; T cruzi inh: 17; RanGTP-Impb inh: inconclusive; Beta apoptosis: 1; Calb FLC: 3; A1 inh: 0.8; UCH37 inh: 3.7; B2AR ag: -1

How did C[C@@H]1CN([C@@H](C)CO)C(=O)c2cc(NS(=O)(=O)c3ccc(Cl)cc3)ccc2O[C@H]1CN(C)Cc1ccncc1 do in these assays?
LANA-H2B inh: -1.0; Beta apoptosis: -2; A1 inh: 3.3; UCH37 inh: -1.0; B2AR ag: -1

What do the screens show for `CCOC(=O)c1cc(CO)cc(C(=O)OCC)c1`?
LANA-H2B inh: 3.3; T cruzi inh: 1; RanGTP-Impb inh: -1.1; Calb FLC: -2; A1 inh: 0.1; UCH37 inh: 1.9; B2AR ag: 6

Results for Cc1ccc(-c2noc(CCC(=O)N(C)c3ccccc3C)n2)cc1 ?
LANA-H2B inh: 2.2; T cruzi inh: 17; RanGTP-Impb inh: -3.0; Calb FLC: -12; A1 inh: -0.4; UCH37 inh: 0.9; B2AR ag: -6

How did Cc1cc(C)n(-c2ccc(C(=O)OCC(=O)NCc3ccc(F)cc3)cc2)n1 do in these assays?
LANA-H2B inh: -3.5; T cruzi inh: -14; RanGTP-Impb inh: 0.3; Beta apoptosis: -1; Calb FLC: 2; A1 inh: 0.8; UCH37 inh: 1.8; B2AR ag: 2

How did O=C(Nc1ccc(NC(=O)N2CCN(c3ccccc3O)CC2)cc1)N1CCN(c2ccccc2O)CC1 do in these assays?
LANA-H2B inh: -1.6; T cruzi inh: 1; RanGTP-Impb inh: -1.4; Beta apoptosis: -4; Calb FLC: 28; A1 inh: -0.3; UCH37 inh: 3.2; B2AR ag: 18

Results for CCOc1ccc(OCCC(=O)OCC(=O)NCc2ccc(Cl)cc2)cc1 ?
LANA-H2B inh: 4.2; T cruzi inh: -10; RanGTP-Impb inh: -3.4; Beta apoptosis: -4; Calb FLC: 4; A1 inh: 1.5; UCH37 inh: 1.9; B2AR ag: 0

Results for O=S(=O)(c1cccc(-c2nc3ccccc3s2)c1)N1CCCC1 ?
LANA-H2B inh: -0.3; T cruzi inh: -6; RanGTP-Impb inh: 3.0; Beta apoptosis: -4; Calb FLC: 11; A1 inh: -0.1; UCH37 inh: 3.2; B2AR ag: -2

What do the screens show for `CCn1cc(C(=O)NN)c(=O)c2cc(F)c(NC3CCCCC3)cc21`?
T cruzi inh: 13; RanGTP-Impb inh: -6.3; Calb FLC: 10; UCH37 inh: -22; B2AR ag: -6

What do the screens show for `CC1(C)CC(=O)C=C(NC2CCCCCCC2)C1`?
LANA-H2B inh: 3.1; T cruzi inh: 9; RanGTP-Impb inh: 1.1; Beta apoptosis: -2; Calb FLC: -19; A1 inh: 2.2; UCH37 inh: -0.8; B2AR ag: 9

Results for CCOC(=O)C1=C(C)N=c2s/c(=C\c3cc(OC)c(OC)c(OC)c3)c(=O)n2C1/C=C/c1ccccc1 (stereo not given) ?
LANA-H2B inh: 1.4; T cruzi inh: 12; RanGTP-Impb inh: 1.2; Beta apoptosis: 5; Calb FLC: 0; A1 inh: 0.4

What do the screens show for `COc1ccccc1NC(=O)CCNC(=O)c1ccc(C)cc1`?
LANA-H2B inh: -1.8; T cruzi inh: -3; RanGTP-Impb inh: -5.3; Beta apoptosis: -4; Calb FLC: -1; A1 inh: 1.9; UCH37 inh: -0.4; B2AR ag: -7

What do the screens show for `CC(C)Cc1nnc(NC(=O)CCc2ccccc2)s1`?
LANA-H2B inh: 6.9; T cruzi inh: -6; RanGTP-Impb inh: -1.8; Beta apoptosis: -1; Calb FLC: -17; A1 inh: -0.5; UCH37 inh: 0.5; B2AR ag: -6

Results for Cc1cc(=O)oc(C)c1C(=O)OCC(=O)c1ccccc1 ?
LANA-H2B inh: -2.5; T cruzi inh: -14; RanGTP-Impb inh: 0.3; Beta apoptosis: 0; Calb FLC: 1; A1 inh: -0.7; UCH37 inh: 0.1; B2AR ag: -13

Results for O=C1NC[C@H](c2ccccc2)OC(=O)[C@H](Cc2ccc(F)cc2)CC/C=C/C[C@@H]1CC(=O)N(CCO)Cc1ccccc1 ?
LANA-H2B inh: 4.9; Beta apoptosis: -1; A1 inh: -0.4; UCH37 inh: 2.8; B2AR ag: 10

What do the screens show for `COc1ccc(C(=O)C2CCN(C(=O)c3ccc(C)cc3)CC2)cc1`?
LANA-H2B inh: 0.5; T cruzi inh: -4; RanGTP-Impb inh: -0.8; Beta apoptosis: 3; Calb FLC: -51; A1 inh: -0.3; UCH37 inh: 3.4; B2AR ag: 2

Results for CNC(=O)CC(CC(=O)c1ccccc1)c1ccccc1 (stereo not given) ?
LANA-H2B inh: 4.8; Beta apoptosis: 0; A1 inh: 1.2; UCH37 inh: -1.5; B2AR ag: -4

How did O=C(Nc1nc(-c2ccccn2)cs1)C1CC1 do in these assays?
LANA-H2B inh: 0.2; T cruzi inh: -16; RanGTP-Impb inh: 2.2; Beta apoptosis: 13; Calb FLC: 5; A1 inh: -1.1; UCH37 inh: 5.4; B2AR ag: -17

How did CCN(CC(=O)NCc1ccc(Cl)cc1)C(=O)c1ccc(S(=O)(=O)N(C)C)cc1 do in these assays?
LANA-H2B inh: 0.4; T cruzi inh: -2; RanGTP-Impb inh: inconclusive; Beta apoptosis: 3; Calb FLC: 18; A1 inh: 1.9; UCH37 inh: 3.9; B2AR ag: -2

Results for Cc1cc(-c2c(C)n([O-])c(C)c(C)[n+]2=O)ccc1F ?
LANA-H2B inh: 4.3; T cruzi inh: 2; RanGTP-Impb inh: 8.1; Beta apoptosis: -8; Calb FLC: 16; A1 inh: -0.2; UCH37 inh: 0.1; B2AR ag: 1

How did CCCn1ccc(O)c(Cc2ccc(Cl)cc2)c1=O do in these assays?
LANA-H2B inh: -0.3; T cruzi inh: 8; RanGTP-Impb inh: 3.6; Beta apoptosis: 2; Calb FLC: -10; A1 inh: 2.4; UCH37 inh: 1.7; B2AR ag: -6

How did Cc1ccnc(NC(=O)CCC(=O)N(CC(=O)NC(C)(C)C)c2ccc3c(c2)OCCO3)c1 do in these assays?
LANA-H2B inh: -6.1; T cruzi inh: 2; RanGTP-Impb inh: -2.2; Beta apoptosis: -5; Calb FLC: -8; A1 inh: 1.3; UCH37 inh: 1.7; B2AR ag: 6

What do the screens show for `CC1CN(C(C)C(=O)NNC(=O)c2ccc(F)cc2)CC(C)O1` (stereo not given)?
LANA-H2B inh: -1.0; Beta apoptosis: -5; A1 inh: 1.3; UCH37 inh: -0.3; B2AR ag: 0

Results for Cc1ncc([N+](=O)[O-])n1CC(=O)Nc1ccc(F)cc1F ?
LANA-H2B inh: 1.8; T cruzi inh: -6; RanGTP-Impb inh: 0.2; Beta apoptosis: -6; Calb FLC: -1; A1 inh: 0.8; UCH37 inh: 6.7; B2AR ag: -12

Results for COC(=O)C1CCN(C(=O)C(C)Oc2ccc(Cl)cc2Cl)CC1 (stereo not given) ?
LANA-H2B inh: 2.5; T cruzi inh: 0; RanGTP-Impb inh: -0.7; Beta apoptosis: 2; Calb FLC: inconclusive; A1 inh: -0.2; UCH37 inh: -2.4; B2AR ag: 4

What do the screens show for `Cc1c2ccccc2nc2c(F)c(N(C)C)c(F)c(F)c12`?
LANA-H2B inh: 5.1; T cruzi inh: -11; RanGTP-Impb inh: -5.0; Calb FLC: 44; A1 inh: -3.1; UCH37 inh: 4.1; B2AR ag: -27

What do the screens show for `COc1ccc(Nc2oc(COc3ccc(OC)cc3)nc2C#N)cc1`?
LANA-H2B inh: -0.3; T cruzi inh: 22; RanGTP-Impb inh: 3.6; Calb FLC: 0; A1 inh: -1.2; UCH37 inh: 2.3; B2AR ag: -5

Results for COC(=O)Nc1nnc(-c2ccc(OC)cc2)s1 ?
LANA-H2B inh: -2.7; T cruzi inh: -12; RanGTP-Impb inh: -0.9; Beta apoptosis: 4; Calb FLC: -9; A1 inh: -9.3; UCH37 inh: -22; B2AR ag: 3

How did Cc1ccnc(SCC(=O)N2CCN(c3cccc(Cl)c3)CC2)n1 do in these assays?
LANA-H2B inh: -1.8; T cruzi inh: -9; RanGTP-Impb inh: 0.8; Beta apoptosis: -4; Calb FLC: 21; A1 inh: -0.2; UCH37 inh: -1.0; B2AR ag: 7

Copied from the listing, two compounds:
Results for Cc1cc(-c2c(C)n([O-])c(C)c(C)[n+]2=O)ccc1F ?
LANA-H2B inh: 4.3; T cruzi inh: 2; RanGTP-Impb inh: 8.1; Beta apoptosis: -8; Calb FLC: 16; A1 inh: -0.2; UCH37 inh: 0.1; B2AR ag: 1

How did CCCn1ccc(O)c(Cc2ccc(Cl)cc2)c1=O do in these assays?
LANA-H2B inh: -0.3; T cruzi inh: 8; RanGTP-Impb inh: 3.6; Beta apoptosis: 2; Calb FLC: -10; A1 inh: 2.4; UCH37 inh: 1.7; B2AR ag: -6

(list continues)
What do the screens show for `CCC(Sc1nnc(C)s1)C(=O)Nc1nccs1` (stereo not given)?
LANA-H2B inh: 0.1; T cruzi inh: 3; RanGTP-Impb inh: -0.4; Beta apoptosis: -13; Calb FLC: -5; A1 inh: -0.2; UCH37 inh: 4.4; B2AR ag: 3

How did COc1ccc(CNC(=O)CN(C(=O)CCC(=O)Nc2nccs2)c2ccccc2C)cc1 do in these assays?
LANA-H2B inh: -3.0; T cruzi inh: 7; RanGTP-Impb inh: -3.0; Beta apoptosis: -4; Calb FLC: -11; A1 inh: -0.2; UCH37 inh: -0.8; B2AR ag: -2

What do the screens show for `O=C(c1cccs1)N(c1ccc(Br)cc1)C1C=CS(=O)(=O)C1` (stereo not given)?
LANA-H2B inh: 1.7; T cruzi inh: -2; RanGTP-Impb inh: -1.0; Beta apoptosis: -2; Calb FLC: -5; A1 inh: -0.1; UCH37 inh: 4.4; B2AR ag: 1

Results for O=C1C2CCCN2c2ccc(S(=O)(=O)N3CCOCC3)cc2N1Cc1ccccc1F (stereo not given) ?
LANA-H2B inh: 3.5; T cruzi inh: 33; RanGTP-Impb inh: 0.3; Beta apoptosis: 2; Calb FLC: -3; A1 inh: 0.0; UCH37 inh: -30; B2AR ag: -9

What do the screens show for `COc1ccc(C(=O)N2CCCCCC2)cc1OC1CCN(C(C)C)CC1`?
LANA-H2B inh: 0.7; T cruzi inh: 0; RanGTP-Impb inh: 4.0; Beta apoptosis: 4; Calb FLC: 4; A1 inh: -1.3; UCH37 inh: 4.2; B2AR ag: -4
